Cruzain noTriton = qHTS Assay for Promiscuous and Specific Inhibitors of Cruzain (without detergent); Cruzipain (Trypanosoma cruzi), P25779; purified cruzain, Z-FR-AMC fluorescence, no detergent; Potency, µM, for the others: max response, negative = inhibition, usual class: inhibitors; actives 2.3% (n = 200,000); AID 1476, 2009; active means well fitted curve in the direction sought with a large enough effect; inconclusive means small, poorly fitted or top-dose-only effect, or another doubt; inactive means no such curve, though single readings can be large; an effect the other way counts as inactive or inconclusive;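 further: plate controls were enzyme without inhibitor for no effect and buffer without enzyme for full effect; nearly all actives have a fitted effect of over 40% in size; top concentration of the series not given in the record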
Target sequence (P25779 123-467 limits assumed): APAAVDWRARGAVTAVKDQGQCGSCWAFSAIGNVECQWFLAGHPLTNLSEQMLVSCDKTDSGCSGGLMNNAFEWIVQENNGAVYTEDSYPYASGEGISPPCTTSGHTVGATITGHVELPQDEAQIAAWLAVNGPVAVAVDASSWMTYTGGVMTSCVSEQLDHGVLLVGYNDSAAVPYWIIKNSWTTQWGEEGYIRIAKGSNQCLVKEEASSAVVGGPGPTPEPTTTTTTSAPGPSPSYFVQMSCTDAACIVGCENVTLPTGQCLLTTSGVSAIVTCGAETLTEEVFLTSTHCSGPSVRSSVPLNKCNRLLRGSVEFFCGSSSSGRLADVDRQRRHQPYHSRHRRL
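Detergent-free condition (0.00005% Triton X-100) in acetate buffer pH 5.5 with DTT. 1.5 nM enzyme and compound were pre-mixed 15 min, then 2 uM Z-FR-AMC substrate added; reaction progress from fluorescence change between first and third reads (60 s).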
SARS PLpro yeast = qHTS of Yeast-based Assay for SARS-CoV PLP; actives 0.19% (n = 330,000); Potency, µM (top dose mostly 32.9 µM), for the others: at the top dose activity, positive = growth rescue; S. cerevisiae expressing SARS-CoV PLpro, growth rescue; control for the full effect not named in the record; AID 485353, 2010; further: 0% is about no effect; nearly all actives have a fitted effect of over 55% in size; growth read by luminescence after 48 h
2A StopGo = High Throughput Screening for Foot and Mouth Disease Virus Antivirals | AID 1159524, 2015 | human cells with a luciferase reporter of 2A StopGo recoding; control for the full effect not named in the record | actives 1.2% (n = 410,000) | Potency, µM (highest dose often 57.9 µM), without a hit: top-dose signal change, negative = less light; active = well fitted falling curve with a large enough effect; inconclusive = small, poorly fitted or top-dose-only effect; inactive = no such curve, though single readings can be large or run the other way; tested in HEK293T cells; further: on the % scale 0 is the no-effect control and ±100 the full control effect; nearly all actives have a fitted effect of over 45% in size; luciferase light after 4 h
MARV entry inh = qHTS for inhibitors of binding or entry into cells for Marburg Virus | Marburg virus pseudotyped entry inhibition, cell reporter; control for the full effect not named in the record; about a third of the inactives were read at about 46 µM | Potency, µM (top dose mostly 37.8 µM), without a hit: top-dose activity change, negative = inhibition, most hits filed as inhibitors | actives 1.8% (n = 300,000) | AID 540276, 2011; active = well fitted inhibition curve with a large enough effect; inconclusive = small, poorly fitted or top-dose-only effect, or effect the other way; inactive = flat fitted curve, though single readings scatter; tested in HEK293 cells; about a fifth of its hits are not listed in these tables; further: on the % scale 0 is the no-effect control and ±100 the full control effect; luciferase read-out
RE007 growth inh = qHTS Assay for Inhibitors of the HIV-1 protein Vpr; S. pombe RE007 Vpr strain, BacTiter-Glo ATP luminescence, 24 h; control for the full effect not named in the record; Potency, µM (highest dose often 92.2 µM), without a hit: top-dose activity change, negative = less growth; actives 0.21% (n = 360,000); AID 651644, 2012; active = well fitted falling curve with a large enough effect; inconclusive = small, poorly fitted or top-dose-only effect; inactive = no such curve, though single readings can be large or run the other way;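 further: on the % scale 0 is the no-effect control and ±100 the full control effect; nearly all actives have a fitted effect of over 50% in size; the assay follows cell death caused by Vpr and the record does not say whether a fall means rescue or toxicity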
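Fission yeast RE007 carrying one integrated HIV-1 vpr copy, seeded at OD 0.01 in PMG+AL medium with 23 nL pinned compound. Grown 24 h at 30 degrees; viability read by BacTiter-Glo luminescence after 5 min.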
Cruzain Triton = qHTS Assay for Promiscuous and Specific Inhibitors of Cruzain (with detergent); actives 0.43% (n = 200,000); purified cruzain, Z-FR-AMC fluorescence, 0.01% Triton; AID 1478, 2009; Potency, µM, for the others: max response, negative = inhibition, most hits filed as inhibitors; active means well fitted curve in the direction sought with a large enough effect; inconclusive means small, poorly fitted or top-dose-only effect, or another doubt; inactive means no such curve, though single readings can be large; an effect the other way counts as inactive or inconclusive;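 further: plate controls were neutral wells for no effect and buffer without enzyme for full effect; nearly all actives have a fitted effect of over 40% in size; top concentration of the series not given in the record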
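Cruzain (1.5 nM) preincubated 15 min at RT with compound in 100 mM sodium acetate pH 5.5, 5 mM DTT, 0.01% Triton X-100. Reaction started with 2 uM Z-FR-AMC; AMC fluorescence (ex 360/em 450 nm) change over 60 s gave rate.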
NS1 function inh = qHTS Assay for Inhibitors of Influenza NS1 Protein Function; S. cerevisiae slowed by influenza A NS1, growth recovery by OD600; Potency, µM (highest dose often 46.1 µM), without a hit: at the highest dose activity, positive = more growth; actives 0.4% (n = 270,000); further: actives are rising curves; nearly all actives have a fitted effect of over 50% in size
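In this qHTS, NS1 from influenza A is expressed in budding yeast, where it slows growth. Cells are switched from glucose to 2% galactose medium (pH 6.0, -URA), treated with compound, and growth recovery is read at OD600.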
Lassa entry inh = qHTS for Inhibitors of binding or entry into cells for Lassa Virus | actives 1.2% (n = 300,000) | Potency, µM (doses to about 37.9 µM), for inactives: top-dose activity change, negative = inhibition, hits mostly inhibitors | AID 540256, 2011 | Lassa virus pseudotype entry inhibition, cell reporter; control for the full effect not named in the record; active means well fitted inhibition curve with a large enough effect; inconclusive means small, poorly fitted or top-dose-only effect, or effect the other way; inactive means flat fitted curve, though single readings scatter; tested in HEK293 cells; further: on the % scale 0 is the no-effect control and ±100 the full control effect; nearly all actives have a fitted effect of over 50% in size; luciferase read-out
* marks the source's active call; other numbers are inactive results; ? = inconclusive; / = not tested or not shown; & = joins results of further samples; [ ] = another dose, or the depositor's remark. Unless noted, the call rests on the fitted dose curve; in most records, active means well fitted rising curve with a large enough effect; inconclusive means small, poorly fitted or top-dose-only effect; inactive means no such curve, though single readings can be large or run the other way. Potency means the concentration at half of the fitted maximal effect.

SMILES	Cruzain noTriton	SARS PLpro yeast	2A StopGo	MARV entry inh	RE007 growth inh	Cruzain Triton	NS1 function inh	Lassa entry inh
CCN(CC)CCn1c(NC(=O)c2ccc(C(F)(F)F)cc2)nc2ccccc21	/	1%	-10%	2%[14.2 µM]	8%	/	/	5%
CC1(C)CC(=O)C=C(C(=O)NC2CCCc3c2cnn3-c2cc(F)cc(F)c2)O1 (stereo not drawn)	/	2%	-4%	3%	2%	/	-4%	4%
CCOc1cc(/C=N/NS(=O)(=O)c2ccc(OC)cc2)ccc1OCCN1CCOCC1	-1%	9%	18%	4%	-3%	-1.2%	3%	?
Nn1c(SCC(=O)N2CCN(S(=O)(=O)c3ccc(Cl)cc3)CC2)nnc1-c1cccs1	-4%	-6%	-37%	1%	3%	0.3%	-2%	-12%
CC(C)(C)SCCNC(=O)CSc1ccccc1	/	/	56%[activator]	28%	-12%	/	3%	?
Nc1c(C(=O)NCc2ccco2)c2nc3ccccc3nc2n1Cc1ccccc1	?	-5%	-2%	-35%	-4%	-11%	13%	-23%
CC(=NCc1cccnc1)c1c(O)n(-c2ccccc2)c(=O)[nH]c1=O	6%	4%	-3%	4%	-4%	0.8%	0%	?
CCOC(=O)C1=CN(C)C=C(C(=O)OCC)C1c1ccsc1	0%	5%	-5%	-12%	6%[3.69 µM]	-7.1%	?	-1%
COc1ccc(S(=O)(=O)Cc2ccc(C(=O)N3CCN(c4ccccc4)CC3)o2)cc1	?	8%	-22%	4%	5%	1.9%	-10%	/
CCOC(=O)c1cccc(NC(=O)C2CCCN(S(=O)(=O)c3c(C)nn(C)c3C)C2)c1 (stereo not drawn)	?	12%	-18%	-4%	-4%	0.5%	-20%	/
COCc1ccc(C(=O)NC2CCCc3c2cnn3-c2ccc(C)c(C)c2)o1 (stereo not drawn)	/	-8%	?	/	-7%	/	-13%	/
COc1ccc(C/C(N)=N/OC(=O)Cc2ccc(OC)c(OC)c2)cc1	4%	-6%	/	17%	-7%	2.7%	-33%	2%
CC1CCC(O)(C(C(=O)O)c2ccccc2)CC1 (stereo not drawn)	/	/	-10%	0%[46.1 µM]	-5%	/	/	-8%[46.1 µM]
O=[N+]([O-])c1ccccc1/C=N\Nc1nccs1	/	5%	-2%	16%	9%	/	4%	?
Cc1nnc(Nc2ccccc2F)s1	/	3%	2%	/	-13%	/	3%	/
CCCCCn1cnc2c(sc3nc4c(cc32)CSC(C)(C)C4)c1=O	-2%	-11%	-26%	?	2%	-11%	8%	21%
Cc1nnc(SCC(=O)Nc2cc(-c3cc(C)c(C)cc3C)nn2-c2ccccc2)s1	?	-39%	-5%	?	6%	-7.2%	-6%	?
CCOc1ccc(-c2cc3nc(C4CCN(C(=O)OC(C)(C)C)CC4)c(C(=O)Nc4cccc(CC)c4)cn3n2)cc1	?	/	8%	?	/	-8.3%	/	-15%[46.1 µM]
O=C(c1cc2ccc3cccnc3c2[nH]1)N1CCN(c2ccc(Cl)cc2)CC1	-1%	/	-23%	/	/	-2.4%	/	16%[46.1 µM]
Cc1ccc(C)c(-c2nnc(NC(=O)Cc3ccc(F)cc3)o2)c1	/	-2%	-9%	/	19%	/	-6%	/
CCOCCn1c(SCCCc2ccccc2)nc2c1c(=O)[nH]c(=O)n2C	16%	-3%	-15%	-11%[46.1 µM]	0%	-6.4%	-6%	-11%
CN1C(=O)c2ccc(NC(=O)c3c(F)c(F)c(F)c(F)c3F)cc2C1=O	-15%	-3%	-30%	-3%[46.1 µM]	-6%	-0.9%	-10%	17%
O=S(=O)(NCCC1=CCCCC1)c1ccccc1Br	/	-1%	76%[activator]	8%	12%	/	/	?
O=C(NC1CCCCCC1)c1ccco1	/	1%	10%	/	-22%	/	-7%	/
COC(=O)c1sccc1NC(=O)Cc1ccc(OC)cc1	-5%	-4%	13%	?	2%	-5.5%	-2%	?
COc1cc2ccccc2cc1C(=O)Nc1ccc(Cl)c(-c2nc3ccccc3o2)c1	3.2µM*	/	-2%	/	/	-1.9%	/	12%[46.1 µM]
COc1ccccc1CN1CCCC(C(=O)N(C)Cc2ccccc2)C1 (stereo not drawn)	-3%	3%	-8%	?	3%	4.1%	-2%	-2%
C/C(=N\N=C\c1ccccc1F)c1nnn(-c2nonc2N)c1C	?	7%	40%[activator]	19%	5%	1.5%	-3%	8%
O=C(COC(=O)C1CCN(C(=O)Nc2ccccc2)CC1)NCC(F)(F)F	/	-7%	21%	?	5%	/	/	-8%
CC1(C)CC(C2N3CC4(C)CN2CC(C)(C3)C4=O)CCO1 (stereo not drawn)	13%	-6%	-17%	-2%	15%	0.8%	3%	-14%
O=C(Nc1nc2ccccc2[nH]1)c1cc2ccccc2o1	/	9%	-8%	?	71%	/	-1%	-25%[46.1 µM]
O=C(O)Cc1ccc(N=Cc2c(O)ccc3ccccc23)cc1	-10%	7%	-27%	2%	-12%	-7.6%	-9%	-15%
CSc1ccccc1C(=O)Nc1cc(C)cc(C)c1	1%	-5%	34%[activator]	?	?	-0.1%	-25%	7%
CN(C(=O)CSc1nnc(Cc2cccc3ccccc23)n1N)C1CCS(=O)(=O)C1 (stereo not drawn)	9%	-4%	-14%	-4%	5%	8.5%	5%	0%
COC(=O)C1=C(C)Nc2nnnn2C1c1ccc(Cl)cc1Cl (stereo not drawn)	-3%	0%	?	1%	-10%	2.0%	-45%	-5%
COc1ccc(CNc2nc(-c3ccccc3)nc3ccccc23)cc1OC	/	-11%	-17%	?	4%	/	3%	0%[46.1 µM]
COc1cccc(CNC(=O)C2CCN(S(=O)(=O)c3ccc(F)cc3)CC2)c1	-3%	0%	-12%	-11%	-15%	0.3%	-18%	3%
Cc1cc(C)cc(-n2ncc3c2CCCC3NC(=O)c2ccccc2N2CCOCC2)c1 (stereo not drawn)	/	-44%	3%	/	25%	/	-56%	/
CC(=O)COc1cc2c(-c3cc4ccccc4o3)cc(=O)oc2cc1C	/	0%	-25%	?	6%	/	-7%	?
NC(=O)c1csc(-c2ccncc2)n1	0%	5%	20%	4%	2%	-0.5%	10%	0%
Cc1cc(C)c2c(=O)cc(CSc3nnc(COc4ccccc4C)n3C)[nH]c2c1	23%	/	-27%	/	/	0.4%	/	-6%[46.1 µM]
COCCn1c(SCC(=O)Nc2ccc(S(=O)(=O)N(C)C)cc2)nc2ccccc21	15%	-6%	?	?	0%	5.8%	2%	?
CC1CCCCN1C(=O)c1cnn2c(C(F)(F)F)cc(-c3ccco3)nc12 (stereo not drawn)	-3%	1%	-23%	-26%[46.1 µM]	-3%	-1.2%	-2%	9%
CCC(c1nnnn1Cc1ccccc1)N1CCN(c2ccccc2)CC1 (stereo not drawn)	/	1%	-25%	?	23%	/	-8%	12%
CC1CN(C(=O)c2cccn(Cc3c(Cl)cccc3Cl)c2=O)CC(C)O1 (stereo not drawn)	/	0%	9%	0%[46.1 µM]	-2%	/	3%	5%[46.1 µM]
CCOc1ccc(/C=C/C(=O)c2c(O)c3ccccc3oc2=O)cc1	-1%	-2%	0%	10%	1%	-1.3%	11%	10%
Cc1nc(NC(=O)/C=C/c2ccccc2)sc1C(=O)N(C)C	1%	-12%	36%[activator]	?	/	-8.0%	-18%	19%
C=CCn1c(SC)nccc1=O	/	/	-6%	14%[46.1 µM]	7%	/	/	16%[46.1 µM]
COC(=O)[C@@]1(Cc2ccccc2)[C@H]2c3cc(C(=O)N4CCCC4)n(Cc4ccsc4Br)c3C[C@H]2CN1C(=O)c1ccccc1	?	-16%	/	?	/	-2.9%&-1.2%	-3%	?
CC(=O)N(C1=C(Cl)C(=O)c2ccccc2C1=O)C1CCCCC1	/	-5%	?	?	6.3µM*	/	-92%	13µM*
O=C(COc1ccc(Cl)cc1Br)N1CCN(c2ncccn2)CC1	/	1%	4%	18%	3%	/	/	3%
CC(=O)c1cccc(S(=O)(=O)NC2CC2)c1	-6%	25%	9%	?	14%	2.5%	5%	-3%
COc1ccc(Cn2c(CCC(=O)Nc3ccc(Br)c(C)c3)nc3cccnc32)cc1	-2%	/	-16%	1%[46.1 µM]	/	-2.4%	/	-12%[46.1 µM]
CCCn1nc(NS(=O)(=O)c2ccccc2[N+](=O)[O-])c2cc3ccccc3nc21	/	1%	0%	/	-6%	/	8%	/
CCOC(=O)C1=C(NC(=S)NC(=O)c2ccccc2)c2ccccc2CC1(C)CC (stereo not drawn)	2%	-28%	0%	5.8µM*	23%	-5.4%	1%	2.1µM*
COc1ccc(N2CCN(C(=O)CCCn3c(=O)c4cccn4c4cccnc43)CC2)cc1	/	-3%	?	/	16%	/	12%	/
COc1ccc(CN(CCC(C)C)S(=O)(=O)c2ccccc2Br)cc1	/	-35%	-9%	/	8%	/	/	1%[46.1 µM]
CCN1CCN(c2cc(C)c3cc(NC(=S)N4CC(C)CC(C)C4)ccc3n2)CC1 (stereo not drawn)	/	-3%	-2%	?	5%	/	-2%	-27%
CN(C)CCCN=Cc1c(O)n(Cc2ccco2)c(=O)[nH]c1=O	/	5%	1%	-4%[46.1 µM]	9%	/	/	/
O=C1CCC(C(=O)N2CCSCC2)CN1Cc1cccc(C(F)(F)F)c1 (stereo not drawn)	/	-5%	15%	-13%	-14%	/	-3%	4%
CC(C)CC(CC(C)C)=NNC(=O)c1ccc(CSc2nncn2C)cc1	/	-1%	4%	3%[46.1 µM]	-3%	/	/	-10%
COc1ccc(C(=O)N2CCC(C(=O)N3CCN(c4ccc(OC)cc4)CC3)CC2)cc1	/	2%	-6%	-3%[46.1 µM]	-2%	/	2%	/

Screening results: PubChem, National Center for Advancing Translational Sciences (NCATS)
